UUG fidelity: modulators of yeast start codon fidelity, primary screen, whole organism, S. cerevisiae, single point, plate reader; S. cerevisiae UUG-firefly luciferase reporter, luminescence/redox ratio; activity score, % at 18.7 µM; 0.13% of 350,000 active; AID 602363, 2012;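 active means replicate mean at a twofold rise or more, about +100% in these data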;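 further: firefly luciferase made from a UUG start codon reports start codon fidelity; reporter light over untreated wells divided by growth signal over untreated wells; some hits fall short of that in this replicate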
* = called active by the depositor. Some of the compounds tested (hit frequency here may not be typical).

Start of the listing, in advance (seven entries):
SMILES	UUG fidelity
O=C(c1cccc(F)c1)N1CCCCN2[C@H](CO)[C@H](c3ccc(-c4ccc(F)cc4)cc3)[C@@H]2C1	-4
C[C@H](CO)N1C[C@H](C)[C@@H](CN(C)Cc2ccc(Cl)c(Cl)c2)Oc2ccc(NC(=O)Cn3cnnn3)cc2CC1=O	13
COc1ccc(S(=O)(=O)N(C)C[C@@H]2Oc3ccc(NC(=O)C4CC4)cc3C(=O)N([C@@H](C)CO)C[C@@H]2C)cc1	-9
O=C(C[C@@H]1CC[C@@H]2[C@H](COC[C@@H](O)CN2C(=O)c2ccncc2)O1)NCc1ccc(-c2ccccc2)cc1	6
CCCNC(=O)Nc1ccc2c(c1)C(=O)N(C)C[C@H](OC)[C@@H](C)CN(C(=O)C1CCC1)[C@H](C)CO2	6
C/C=C/c1ccc([C@@H]2[C@@H](CO)N(C(=O)COC)[C@H]2CNC(=O)CC)cc1	2
COc1ccc(CN(C)C[C@@H]2Oc3ccc(NS(=O)(=O)c4ccc(C)cc4)cc3C(=O)N([C@H](C)CO)C[C@@H]2C)cc1	0

This part in full, from the start:
SMILES	UUG fidelity
O=C(c1cccc(F)c1)N1CCCCN2[C@H](CO)[C@H](c3ccc(-c4ccc(F)cc4)cc3)[C@@H]2C1	-4
C[C@H](CO)N1C[C@H](C)[C@@H](CN(C)Cc2ccc(Cl)c(Cl)c2)Oc2ccc(NC(=O)Cn3cnnn3)cc2CC1=O	13
COc1ccc(S(=O)(=O)N(C)C[C@@H]2Oc3ccc(NC(=O)C4CC4)cc3C(=O)N([C@@H](C)CO)C[C@@H]2C)cc1	-9
O=C(C[C@@H]1CC[C@@H]2[C@H](COC[C@@H](O)CN2C(=O)c2ccncc2)O1)NCc1ccc(-c2ccccc2)cc1	6
CCCNC(=O)Nc1ccc2c(c1)C(=O)N(C)C[C@H](OC)[C@@H](C)CN(C(=O)C1CCC1)[C@H](C)CO2	6
C/C=C/c1ccc([C@@H]2[C@@H](CO)N(C(=O)COC)[C@H]2CNC(=O)CC)cc1	2
COc1ccc(CN(C)C[C@@H]2Oc3ccc(NS(=O)(=O)c4ccc(C)cc4)cc3C(=O)N([C@H](C)CO)C[C@@H]2C)cc1	0
COCC(=O)N1C[C@@H](C)[C@@H](OC)CN(C)C(=O)c2cc(NC(=O)Nc3ccccc3)ccc2OC[C@H]1C	-3
CN1C(=O)c2cc(NC(=O)C3CC3)ccc2OC[C@@H]2O[C@H](CC(=O)NC3CCC3)CC[C@@H]21	3
C[C@H]1CN([C@@H](C)CO)C(=O)c2cc(NC(=O)Nc3ccc(C(F)(F)F)cc3)ccc2O[C@@H]1CN(C)S(C)(=O)=O	27
COc1ccc(NC(=O)N(C)C[C@@H]2Oc3c(NS(=O)(=O)c4cccs4)cccc3C(=O)N([C@H](C)CO)C[C@@H]2C)cc1	5
O=C(C[C@H]1CC[C@H]2[C@@H](COC[C@H](O)CN2C(=O)Nc2ccccc2)O1)NCc1ccccc1F	-15
CO[C@@H]1CN(C)C(=O)c2ccc(NC(=O)C3CCC3)cc2OC[C@@H](C)N(Cc2nccs2)C[C@@H]1C	15
C[C@@H]1CN([C@H](C)CO)C(=O)c2cc(NS(=O)(=O)c3ccc(F)cc3)ccc2O[C@H]1CN(C)CC1CC1	-6
C[C@H](CO)N1C[C@H](C)[C@H](CN(C)S(=O)(=O)c2ccc(F)cc2)OCc2ccccc2-c2ccccc2C1=O	5
O=C(CN1CCOCC1)N1CCCCN2[C@H](CO)[C@H](c3ccc(C#Cc4ccccc4)cc3)[C@H]2C1	3
COc1ccc(S(=O)(=O)Nc2cccc3c2O[C@@H](CN(C)S(=O)(=O)c2cn(C)cn2)[C@@H](C)CN([C@H](C)CO)C3=O)cc1	3
OC[C@H]1[C@H](c2ccc(-c3ccc(F)cc3)cc2)[C@H]2CN(CCC(F)(F)F)CCCCN21	18
CN(C)C(=O)c1ccc(-c2ccc3c(c2)[C@@H]2[C@@H](CCN2C(=O)C2CCOCC2)[C@H](CO)N3C)cc1	2
COc1ccc(S(=O)(=O)N2CCCCN3[C@H](CO)[C@H](c4ccc(C5=CCCCC5)cc4)[C@@H]3C2)cc1	13

Looked up above.
Value of COc1ccc(S(=O)(=O)N(C)C[C@@H]2Oc3ccc(NC(=O)C4CC4)cc3C(=O)N([C@@H](C)CO)C[C@@H]2C)cc1 under UUG fidelity: -9
Value of C[C@H](CO)N1C[C@H](C)[C@H](CN(C)S(=O)(=O)c2ccc(F)cc2)OCc2ccccc2-c2ccccc2C1=O under UUG fidelity: 5

Later entries
SMILES	UUG fidelity
COc1ccccc1C#Cc1ccc2c(c1)[C@H]1[C@H](CCN1C(=O)c1cccc(F)c1)[C@H](CO)N2	-3
COCC(=O)Nc1ccc2c(c1)C(=O)N(C)[C@@H]1CC[C@H](CC(=O)NCC3CCCCC3)O[C@H]1CO2	-2
C[C@@H]1CN([C@@H](C)CO)C(=O)c2ccccc2-c2ccccc2CO[C@@H]1CN(C)Cc1ccc(C(=O)O)cc1	1
C[C@@H]1CN([C@H](C)CO)C(=O)Cc2cc(NC(=O)C3CCCCC3)ccc2O[C@H]1CN(C)S(=O)(=O)c1ccc(F)cc1	1
COc1ccc(NC(=O)Nc2ccc3c(c2)C(=O)N([C@@H](C)CO)C[C@@H](C)[C@@H](CN(C)C(=O)Nc2c(C)noc2C)O3)cc1	-24
C[C@@H]1CN([C@@H](C)CO)C(=O)c2cccc(NS(=O)(=O)c3ccccc3)c2O[C@H]1CN(C)Cc1ccc(-c2ccccc2)cc1	11
COc1ccccc1NC(=O)N1C[C@@H]2[C@H](c3ccccc31)[C@H](CO)N2CC1CCCC1	2
C[C@@H]1CN([C@H](C)CO)C(=O)c2cccc(NC(=O)Nc3ccc(C(F)(F)F)cc3)c2O[C@H]1CN(C)Cc1ccc(-c2ccccc2)cc1	-18
O=C(C[C@H]1CC[C@@H]2[C@H](COC[C@H](O)CN2S(=O)(=O)c2ccc(Cl)cc2)O1)N[C@@H]1CCN(Cc2ccccc2)C1	-6
CO[C@H]1CN(C)C(=O)c2ccc(NS(=O)(=O)c3ccc(Cl)cc3)cc2OC[C@H](C)N(C(=O)NC(C)C)C[C@@H]1C	19
CO[C@@H]1CN(C)C(=O)c2ccc(NC(=O)C3CCCCC3)cc2OC[C@H](C)N(C)C[C@@H]1C	6
OC[C@H]1[C@H](c2ccc(-c3cccc(F)c3)cc2)[C@@H]2CN(Cc3cncnc3)CCCCN12	-18
O=C(CC1CC1)N1[C@@H](CO)[C@@H]2c3ccccc3N(S(=O)(=O)c3ccccc3)C[C@@H]21	8
CCC(=O)N1CCCCN2[C@H](CO)[C@H](c3ccc(C#Cc4cccnc4)cc3)[C@H]2C1	-17
C[C@H]1CN([C@@H](C)CO)C(=O)CCCn2cc(nn2)CO[C@H]1CN(C)Cc1ccccc1C(=O)O	5
C[C@H]1CN([C@@H](C)CO)C(=O)c2cc(NC(=O)Nc3ccccc3)ccc2O[C@H]1CN(C)C(=O)Nc1ccc(F)cc1	-4
COc1ccc(S(=O)(=O)Nc2cccc3c2O[C@@H](CN(C)C(=O)NC2CCCCC2)[C@H](C)CN([C@@H](C)CO)C3=O)cc1	3
COCC(=O)Nc1ccc2c(c1)OC[C@H](C)N(C(=O)Cc1cccnc1)C[C@@H](C)[C@@H](OC)CN(C)C2=O	15
CC(=O)N1CCCCN2[C@H](CO)[C@@H](c3ccc(-c4cccc(C)c4)cc3)[C@@H]2C1	3
O=C(C[C@@H]1CC[C@@H]2[C@H](COC[C@H](O)CN2Cc2ccccc2)O1)N[C@H]1CCN(Cc2ccccc2)C1	6
CCCNC(=O)Nc1ccc2c(c1)C(=O)N(C)[C@H]1CC[C@H](CC(=O)Nc3cc(F)ccc3F)O[C@@H]1CO2	4
O=C(C1CCOCC1)N1CC[C@@H]2[C@@H](CO)Nc3ccc(-c4ccc(F)cc4)cc3[C@@H]21	5
COc1ccc(NC(=O)N2C[C@@H](O)COC[C@@H]3O[C@H](CC(=O)N4CCN(C)CC4)CC[C@H]32)cc1	-6
Cc1ccc(S(=O)(=O)N(C)C[C@@H]2Oc3ccc(NC(=O)CCN4CCOCC4)cc3CC(=O)N([C@H](C)CO)C[C@@H]2C)cc1	-5
O=C(Nc1cccc(F)c1)N1CCCCN2[C@H](C1)[C@H](c1ccc(-c3ccncc3)cc1)[C@@H]2CO	-4
O=C(c1cccnc1)N1C[C@@H]2[C@H](c3ccccc31)[C@H](CO)N2C(=O)C1CCCC1	103*
CO[C@@H]1CN(C)C(=O)c2ccc(NC(C)=O)cc2OC[C@@H](C)N(C(=O)Nc2ccccc2F)C[C@H]1C	-1
O=C(C1CCC1)N1C[C@H]2[C@@H](c3ccccc31)[C@H](CO)N2C(=O)c1ccccc1F	33
CCCNC(=O)C[C@@H]1CC[C@H]2[C@@H](COc3ccc(NC(=O)NC(C)C)cc3C(=O)N2C)O1	-12
CCN1[C@@H]2c3ccc(C4=CCCCC4)c(=O)n3C[C@H]1[C@H](CO)[C@H]2C(=O)N1CCc2ccccc2C1	17
CCCN1C[C@H](C)[C@H](OC)CN(C)C(=O)c2ccc(NC(=O)c3cccc(F)c3)cc2OC[C@@H]1C	-2
COCC(=O)NC[C@H]1[C@H](c2ccccc2)[C@@H](CO)N1C(C)=O	-3
O=C(c1cnccn1)N1CC[C@@H]2[C@H]1c1cc(-c3cccc(F)c3)ccc1N[C@@H]2CO	-19
CO[C@H]1CN(C)C(=O)c2ccc(NC(=O)C3CC3)cc2OC[C@@H](C)N(Cc2ccc(F)cc2)C[C@H]1C	6
C[C@H]1CN([C@@H](C)CO)C(=O)Cc2cc(NS(=O)(=O)c3cccs3)ccc2O[C@@H]1CN(C)CC1CC1	16
COc1cccc(S(=O)(=O)N2CC[C@H]3[C@H](CO)Nc4ccc(-c5ccc(C#N)cc5)cc4[C@H]32)c1	-3
O=C(c1ccccc1)N1C[C@H]2[C@@H](c3ccccc31)[C@@H](CO)N2Cc1cc(F)ccc1F	-7
C[C@@H]1CN([C@@H](C)CO)C(=O)c2cc(NC(=O)CCCCCC(=O)Nc3ccccc3N)ccc2O[C@@H]1CN(C)C(=O)NC1CCCCC1	-10
Cc1ccc(S(=O)(=O)N(C)C[C@@H]2Oc3ccc(NC(=O)NC4CCCCC4)cc3C(=O)N([C@@H](C)CO)C[C@H]2C)cc1	-6
CC(C)NC(=O)N(C)C[C@H]1Oc2c(NC(=O)c3cnccn3)cccc2C(=O)N([C@H](C)CO)C[C@H]1C	-2

Of the compounds above, these have two or more sulfur atoms.
SMILES	UUG fidelity
COc1ccc(NC(=O)N(C)C[C@@H]2Oc3c(NS(=O)(=O)c4cccs4)cccc3C(=O)N([C@H](C)CO)C[C@@H]2C)cc1	5
COc1ccc(S(=O)(=O)Nc2cccc3c2O[C@@H](CN(C)S(=O)(=O)c2cn(C)cn2)[C@@H](C)CN([C@H](C)CO)C3=O)cc1	3
C[C@H]1CN([C@@H](C)CO)C(=O)Cc2cc(NS(=O)(=O)c3cccs3)ccc2O[C@@H]1CN(C)CC1CC1	16

Later entries
SMILES	UUG fidelity
COCC(=O)N1CC[C@@H]2[C@@H](CO)N(C)c3ccc(-c4ccccc4)cc3[C@@H]21	10
O=S(=O)(c1ccccc1)N1CC[C@@H]2[C@H]1c1cc(-c3ccccc3F)ccc1N[C@@H]2CO	-13
C[C@@H]1CN([C@@H](C)CO)C(=O)c2c(c3ccccc3n2C)-c2ccccc2CO[C@@H]1CN(C)Cc1ccc(C(=O)O)cc1	-5
O=C(Nc1cccc(F)c1)N1CCCCN2[C@H](CO)[C@H](c3ccc(-c4ccncc4)cc3)[C@@H]2C1	-7
C[C@@H]1CN([C@H](C)CO)C(=O)c2cc(NC(=O)C3CC3)ccc2O[C@@H]1CN(C)S(=O)(=O)c1cn(C)cn1	-2
CO[C@H]1CN(C)C(=O)c2ccc(NC(=O)C3CCOCC3)cc2OC[C@H](C)N(C(C)=O)C[C@H]1C	15
CO[C@H]1CN(C)C(=O)c2cc(NC(=O)c3ccc(-c4ccccc4)cc3)ccc2OC[C@@H](C)NC[C@H]1C	12
C[C@@H]1CN([C@H](C)CO)C(=O)c2cccc(NS(=O)(=O)c3cccs3)c2O[C@H]1CN(C)C(=O)Nc1ccc(C(F)(F)F)cc1	16
Cc1ccccc1S(=O)(=O)N1CC[C@@H]2[C@@H](CO)N(C)c3ccc(-c4cccc(F)c4)cc3[C@@H]21	-13
COc1ccc(NC(=O)Nc2ccc3c(c2)C(=O)N([C@@H](C)CO)C[C@H](C)[C@H](CN(C)S(C)(=O)=O)O3)cc1	-2
COCCNC(=O)C[C@H]1CC[C@@H]2[C@H](COC[C@@H](O)CN2S(=O)(=O)c2ccccc2C)O1	10
CO[C@H]1CN(C)C(=O)c2cc(NC(=O)c3cnccn3)ccc2OC[C@H](C)N(CCc2ccccc2)C[C@H]1C	-11
COC(=O)N(C)C[C@H]1OCc2ccccc2-c2ccccc2C(=O)N([C@H](C)CO)C[C@H]1C	7
C[C@H](CO)N1C[C@H](C)[C@@H](CN(C)CC2CCCCC2)Oc2ccc(NC(=O)CCC(F)(F)F)cc2CC1=O	2
C[C@H](CO)N1C[C@H](C)[C@H](CN(C)C(=O)CCCN(C)C)OCc2cn(nn2)CCCC1=O	6
CCN(C[C@@H]1[C@@H](c2ccccc2)[C@H](CO)N1CC1CC1)C(=O)c1cccc(F)c1	12
O=C(Nc1ccccc1F)N1C[C@H]2[C@@H](c3ccccc31)[C@H](CO)N2C(=O)Nc1ccccc1	-8
CCC(=O)Nc1ccc2c(c1)C(=O)N(C)C[C@H](OC)[C@H](C)CN(C(=O)NC(C)C)[C@H](C)CO2	-15
Cc1noc(C)c1NC(=O)Nc1ccc2c(c1)CC(=O)N([C@@H](C)CO)C[C@H](C)[C@H](CN(C)Cc1ccncc1)O2	-3
O=C(NC1CCCC1)N1CCCCN2[C@H](C1)[C@H](c1ccc(-c3cccnc3)cc1)[C@@H]2CO	-13
CC(=O)N(C)C[C@H]1[C@H](c2ccc(-c3cccnc3)cc2)[C@@H](CO)N1C(=O)C1CC1	18
Cc1noc(C)c1S(=O)(=O)Nc1ccc2c(c1)CC(=O)N([C@@H](C)CO)C[C@@H](C)[C@H](CN(C)C)O2	9
Cc1cccc(-c2ccc([C@@H]3[C@H](CO)N4CCCCN(Cc5ccncc5)C[C@@H]34)cc2)c1	-9

Screens: PubChem BioAssay, Broad Institute
